Source: PubChem BioAssay
D2 PAM: potentiates the human D2 dopamine receptor allosterically; DiscoveRx D2 beta-arrestin cells, luminescence, 90 min; 100% = 57 uM dopamine signal; P14416; actives 0.23% (n = 360,000); potentiation, % (no concentration beside the values); active = potentiation of 50% or more; inconclusive = 30% to 50%; inactive = 30% or less;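 further: compound concentration not given in the record; tested on top of an EC20 dose of dopamine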
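D2 cells co-treated with compound plus 50 nM dopamine (EC20) for 90 min at 37 deg C to detect potentiation. Beta-arrestin recruitment was read as enzyme-fragment luminescence after 1 h at ambient temperature. Full response was set by 57 uM dopamine.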
TRPML1 agonist: human mucolipin-1 channel agonism; Q9GZU1; TRPML1-expressing cells, Ca2+ dye fluorescence, FDSS; host cell line not named in the record; reference of the full effect not given here; activation, % (no concentration beside the values); actives 0.12% (n = 410,000); in the data active = activation above about 50%; inconclusive = about 30% to 50%; inactive = below about 30%; further: 0% is about no effect; the text of the record puts the active cut at 80%
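Kinetic FDSS Ca2+ read in Tet-induced TRPML1-DL cells (ABD Ca8 dye plus quencher, 45-90 min RT loading): baseline, then compound, then 110 s agonist window; EC80 agonist 54-4 at 4uM final added afterwards for a 110 s antagonist window.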
PINK1 expr mod: changes PINK1 expression. Potency, µM (series often up to 76.6 µM), without a hit: at the highest dose activation (PINK1 increase), hits mostly activators. actives 0.2% (n = 410,000). PINK1 immunofluorescence, high-content cytometry, 24 h; active = well fitted activation curve with a large enough effect; inconclusive = small, poorly fitted or top-dose-only effect; inactive = flat fitted curve, though single readings scatter; cell line not stated here;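 further: potency means the concentration at half of the fitted maximal effect; % of control where 0% means no effect; nearly all actives have a fitted effect of over 65% in size; a mitochondrial uncoupler was the plate control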
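Measures PINK1 amount and localization on or inside mitochondria by immunofluorescence. Stable cells get compounds at 5 concentrations for 24 hours before fixation and staining; CCCP controls included.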
TRPML1 blocker: blocks the human TRPML1 channel. activity change, negative = inhibition, % (test concentration not listed). AID 624415. TRPML1-inducible cells, Ca2+ dye fluorescence, FDSS; stronger effect = lower value; inhibition of EC80 agonist-evoked calcium signal. actives 0.02% (n = 390,000). Q9GZU1; in the data active means activity change below about -50%; inconclusive means about -30% to -50%; inactive means above about -30%;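 further: stimulus is agonist 54-4 at its EC80 concentration; on the % scale 0 is the no-effect control and ±100 the full control effect; compound concentration not given in the record; the text of the record puts the active cut at -80%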
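TRPML1-DL cells, Tet-induced overnight (~16 h, 37 °C) at 1,500 cells/well, were loaded with Ca8 no-wash dye plus quencher for 45-90 min at room temperature. Compounds were pinned during FDSS kinetic reading; agonist 54-4 at EC80 (4 uM final) then added.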
Six1-Eya2 blk: blocks human Six1 binding to Eya2. AlphaScreen GST-Six1/His-Eya2 binding, biochemical; stronger effect = lower value; control for the full effect not named in the record. activity change, % (no concentration beside the values). actives 0.56% (n = 360,000). AID 651725; in the data active = activity change below about -65%; inconclusive = about -30% to -65%; inactive = above about -30%; further: on the % scale 0 is the no-effect control and ±100 the full control effect; compound concentration not given in the record
Target sequence (O00167 whole entry, looked up): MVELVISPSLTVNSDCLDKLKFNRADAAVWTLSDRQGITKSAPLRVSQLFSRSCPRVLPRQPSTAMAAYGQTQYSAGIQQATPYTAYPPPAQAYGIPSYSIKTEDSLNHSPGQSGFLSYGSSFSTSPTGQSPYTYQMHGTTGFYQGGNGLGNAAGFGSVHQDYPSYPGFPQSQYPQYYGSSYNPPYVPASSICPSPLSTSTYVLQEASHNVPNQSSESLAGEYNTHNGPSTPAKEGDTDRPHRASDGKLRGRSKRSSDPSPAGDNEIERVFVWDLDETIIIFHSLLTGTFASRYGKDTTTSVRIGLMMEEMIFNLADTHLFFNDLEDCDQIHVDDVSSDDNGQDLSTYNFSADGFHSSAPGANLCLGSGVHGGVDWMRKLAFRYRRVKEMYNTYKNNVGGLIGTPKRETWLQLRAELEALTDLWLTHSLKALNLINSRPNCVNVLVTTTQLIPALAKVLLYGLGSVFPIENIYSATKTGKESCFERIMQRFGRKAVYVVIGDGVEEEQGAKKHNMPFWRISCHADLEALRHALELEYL
Target sequence (Q15475 whole entry, looked up): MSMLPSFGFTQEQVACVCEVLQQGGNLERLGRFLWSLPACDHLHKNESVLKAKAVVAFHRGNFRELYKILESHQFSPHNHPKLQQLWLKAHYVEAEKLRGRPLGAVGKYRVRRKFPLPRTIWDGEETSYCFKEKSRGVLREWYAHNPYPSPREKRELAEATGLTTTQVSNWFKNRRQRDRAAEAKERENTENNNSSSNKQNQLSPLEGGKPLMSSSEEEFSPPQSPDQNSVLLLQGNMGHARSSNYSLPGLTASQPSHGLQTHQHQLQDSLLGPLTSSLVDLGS
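Homogeneous AlphaScreen proximity assay pairing GST-Six1 with His-tagged Eya2 (added as 5X mix: 250 nM and 500 nM) in 50 mM Tris pH 8.0, 300 mM NaCl, 1 mM TCEP. Glutathione donor and nickel acceptor beads; 1 h, 37 °C, dark.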
D2 agonist: activates the human D2 dopamine receptor. DiscoveRx PathHunter D2 beta-arrestin, luminescence, 90 min; 100% = 57 uM dopamine signal. P14416. activation, % (concentration not given with the values). actives 0.084% (n = 360,000); in the data active = activation above about 40%; inconclusive = about 15% to 40%; inactive = below about 15%; further: compound concentration not given in the record; the text of the record calls up to 30% inactive
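DiscoveRx PathHunter D2 beta-arrestin cells (2,100/well) attached overnight, then compound-stimulated 90 min at 37 C in HBSS/10 mM HEPES/0.1% Tween-20 buffer; beta-galactosidase complementation read by luminescence after 1 h at ambient temperature. Dopamine 57 uM final (EC100) as control.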
* marks the source's active call; other numbers are inactive results; ? = inconclusive; nt = not tested or not shown; & = joins results of further samples; [ ] = another dose, or the depositor's remark.

SMILES	D2 PAM	TRPML1 agonist	PINK1 expr mod	TRPML1 blocker	Six1-Eya2 blk	D2 agonist
O=C(CSc1nc2c(c(=O)n1-c1ccc(Cl)cc1)SCC2)Nc1nccs1	-6	0.8	0.2%	13	-11	0.1
COc1ccc(NC(=O)COc2ccccc2Cc2ccccc2)cc1S(=O)(=O)N1CCOCC1	23	0.8	0.2%	-16	4	3.9
CCC(Oc1ccccc1)C(=O)Nc1ccccc1OC (stereo unspecified)	-1	1.3	-4.0%[38.3 µM]	0	15	-1.2
Nc1c(N(Cc2ccco2)C(=O)c2ccc(Cl)cc2)c(=O)[nH]c(=O)n1Cc1ccccc1	0	0.7	1.2%	14	-1	1.7
COc1ccc(NC(=O)c2ccc3oc(=O)c(S(=O)(=O)c4ccc(C)cc4)cc3c2)cc1OC	nt	-0.4	2.0%	-11	nt	nt
Cc1ccc(/C=N/NC(=S)NCCc2ccccc2)s1	-14	0.3	11%	4	-13	-4.4
CN1CCN(c2ccccc2NC(=O)c2cc(Br)ccc2Cl)CC1	-6	1.5	0.2%	-15	-1	-0.8
C=CCOc1ccccc1/C=N/NC(=O)Cc1ccccc1	-22	nt	1.7%	nt	-2	-3.0
CCc1ccccc1NC(=O)C(CC)Oc1ccccc1-c1nnc(-c2ccccc2)o1 (stereo unspecified)	nt	1.3	6.0%	58	nt	nt
CN1CCCCCC1=Nc1ccccc1C#N	-7	-0.5	-1.6%	-5	5	0.0
CSc1ccc(S(=O)(=O)N2CC(=O)Nc3ccccc32)cc1	-3	0.3	-0.4%	24	3	-3.1
NC(=O)C1CCN(Cc2nnnn2Cc2ccco2)CC1	4	0.5	-0.1%	4	4	-0.5
NC(=O)[C@H]1CC2(CC(c3cccc(NC(=O)COc4ccc(Cl)cc4)c3)=NO2)CN1C(=O)c1ccccc1C(=O)c1ccccc1 (stereo partly specified)	-4	0.1	0.7%	-5	-9	5.0
Cc1cc(NC(=O)c2cccs2)no1	-8	-0.7	-0.1%	-15	-1	1.0
Cc1cc(C)n2nc(C(=O)OCC(=O)N(C)CC(=O)Nc3ccccc3Cl)nc2n1	-19	0.7	-2.0%	-7	0	-1.0
CCN(CC)C(=O)CC(c1ccc2c(c1)OCO2)c1c(OC)cc(OC)c2ccc(=O)oc12 (stereo unspecified)	-9	1.5&-0.1	2.3%	5&-16	0	-0.8
CNC(=O)c1nnsc1S(=O)c1ccc(Cl)cc1 (stereo unspecified)	-25	4.6	-1.7%	0	-1	-6.1
CCOC(=O)C1CCN(C(=O)N(CC)CC)CC1	-4	0.0	2.6%	-9	9	-2.5
Cc1cccc(C(=O)NCC(=O)OCc2cc(=O)n3nc(C4CC4)sc3n2)c1	nt	1.3	-1.4%	11	nt	nt
O=C(C1CCCO1)N1CCN(S(=O)(=O)c2cc(C(F)(F)F)ccc2Cl)CC1 (stereo unspecified)	-12	-0.5	-1.4%	-1	5	-0.9

5 compounds from above, sorted by the value under Six1-Eya2 blk, largest number first.
smiles	Six1-Eya2 blk
COc1ccc(NC(=O)COc2ccccc2Cc2ccccc2)cc1S(=O)(=O)N1CCOCC1	4
CSc1ccc(S(=O)(=O)N2CC(=O)Nc3ccccc32)cc1	3
Cc1cc(NC(=O)c2cccs2)no1	-1
C=CCOc1ccccc1/C=N/NC(=O)Cc1ccccc1	-2
Cc1ccc(/C=N/NC(=S)NCCc2ccccc2)s1	-13

Next section
SMILES	D2 PAM	TRPML1 agonist	PINK1 expr mod	TRPML1 blocker	Six1-Eya2 blk	D2 agonist
Cc1ccc2c(c1)NC(=O)c1cc([N+](=O)[O-])ccc1O2	0	1.1	7.8%	9	-3	-3.8
O=C(Nc1ccc2c(c1)OCO2)c1cccc2c1C(=O)N(Cc1cccnc1)C2	-26	-0.4	-0.6%	10	-22	-1.9
COc1ccc(-c2csc(N3CCN(C(=O)c4ccco4)CC3)n2)cc1	-2	2.5	1.6%	14	-26	0.7
COc1ccc(-c2cc(C(F)(F)F)c(C#N)c(SCC(=O)O)n2)cc1	-3	-1.2	-0.3%	7	6	2.3
COC1(NS(=O)(=O)c2ccc(Br)cc2)C(C)=CC(=O)C=C1C	-4	0.1	2.8%	3	-4	0.8
CC(=O)Nc1ccc(NC(=O)C(C)OC(=O)CCCN=C2NS(=O)(=O)c3ccccc32)cc1 (stereo unspecified)	13	0.3	-0.2%	-5	5	-1.5
COc1ccccc1NC(=O)N1c2ccc(F)cc2CCC1C (stereo unspecified)	-12	-0.4	0.8%	-8	0	-3.2
NNC(=O)c1ccc([N+](=O)[O-])c(CS(=O)(=O)c2ccc(Cl)cc2)c1	8	-0.3	-1.7%	-4	-1	1.7
COC(=O)c1ccc(NC(=O)c2ccc3nc(C)sc3c2)cc1	-8	0.1	6.7%	-15	14	-0.6
c1ccc(-c2nnc(-c3ccccn3)nn2)nc1	-6	nt	-0.7%	nt	-79*	4.8
CCN(CC)CCNC(=O)c1ccc(-n2c(-c3ccccc3)cc3c2CCCC3)cc1	nt	0.3	-1.0%	-6	nt	nt
CN(c1ccccc1)S(=O)(=O)c1ccc(Cl)c(C(=O)Nc2ccccc2N2CCOCC2)c1	-38	2.3	3.4%	11	-4	-1.4
CCc1cccc(C)c1NC(=O)c1cnn(-c2ccc(F)cc2)c1-n1cccc1	nt	2.6	2.0%	7	nt	nt
O=S(=O)(Nc1cc(S(=O)(=O)N2CCOCC2)ccc1NCC1CCCO1)c1ccccc1F (stereo unspecified)	0	-0.5	1.6%	14	8	-0.6
CN(Cc1ccccc1)C(c1ccnc2ccccc12)c1nnnn1-c1ccc2c(c1)OCCO2 (stereo unspecified)	nt	-0.7	0.7%	nt	-20	nt
COc1ccc(C(=O)N2CCCC(c3cc(C(=O)Nc4ccccc4)no3)C2)cc1 (stereo unspecified)	3	-0.1	-0.5%	nt	5	3.9
COc1ccc2c(c1)c(/C=N/Nc1ccc(C(=O)O)cc1)c(C)n2C	3	0.8	0.7%	-9	-11	?
Cc1ccc(C)c(S(=O)(=O)N2CCN(C(=O)c3ccc(OCc4c(C)noc4C)cc3)CC2)c1	-1	0.6	-0.3%	-10	13	-2.5
O=C(CNC(=O)c1nc[nH]c1C(=O)N1CCNCC1)OCc1ccccc1	-1	0.1	1.1%	-13	1	-2.3
c1ccc2c(c1)CCc1ccccc1C2=C1CCNCC1	-13	-0.1	0.6%	24	-3	-2.9
O=C(NNC(=S)NC(=O)c1ccc(F)cc1)c1ccncc1	-7	0.3	1.8%	-4	-9	-2.8
COc1ccc2nc(C(F)(F)C(F)(F)F)c(C#N)c(N)c2c1	-11	3.2	0.6%	18	4	0.0
COc1ccc(N2C(=O)c3ccccc3NC2c2ccc(OC)c(COc3ccccn3)c2)cc1 (stereo unspecified)	-13	-0.6&0.3	0.5%&-1.6%	-9	4	2.3
COc1ccc(N/C=C2\C(=O)CCc3c2oc2cc(Cl)c(O)c(Cl)c32)cc1	-10	0.4	12%	53	-4	-8.1
Nc1nc(N)c2cc(S(=O)(=O)c3ccc4ccccc4c3)ccc2n1	-11	0.2	3.2%	0	9	1.8
COc1ccc(/C(C)=N/NS(=O)(=O)c2ccccc2)c(OC)c1	0	0.0	0.8%	-14	-7	-3.0
COc1cccc(OCCNC(=O)CSc2ccc(C(F)(F)F)cc2[N+](=O)[O-])c1	-36	1.8	3.0%	-12	-15	-2.8
Cc1ccc(NC(=O)CC(C)N2CCCC2)cc1 (stereo unspecified)	-31	-0.6	-1.0%	7	4	-1.3
O=C(NCCc1ccccc1)C(=O)NCC(c1ccco1)S(=O)(=O)c1cccs1 (stereo unspecified)	nt	0.7	2.8%	-16	nt	nt
O=C(Cc1ccccc1)NCC(=O)OCc1ccc([N+](=O)[O-])cc1	-14	0.8	-2.9%	2	2	2.1
Cc1ccc(C(=O)N/C(=C\c2ccc(Cl)cc2)C(=O)NCC2CCCO2)cc1 (stereo unspecified)	-9	-0.4	2.5%	24	-5	-3.1
COc1ccccc1-c1cc2nc(C)c(CCC(=O)NCc3ccc(F)cc3)c(C)n2n1	-6	-0.1	3.0%	2	-6	-2.0
CC(NC(=O)CSc1nc(=O)cc(N)n1-c1ccccc1)c1ccccc1 (stereo unspecified)	-6	0.5	0.5%	-10	4	0.9
COc1ccc(CCN2C(=O)CSC2c2cccc([N+](=O)[O-])c2)cc1OC (stereo unspecified)	-5	-0.4	-0.3%	10	-2	1.3
c1ccc(CNc2ccccn2)cc1	-14	0.0	0.4%	-2	-1	0.9
CCN=C1NN=C(c2c[nH]c3ccccc23)CS1	-14	0.3	-0.2%	-20	-3	-0.5
CS(=O)(=O)Nc1ccc2c(c1)C(=O)OC2	-1	-0.3	-0.9%	-2	5	0.4
COc1ccc(Cn2c(SCc3ccc(C(=O)NC(C)C)cc3)nc3cccnc32)cc1	nt	-0.6	1.3%	-13	nt	nt
CC1(C)CC(=O)C(c2c[nH]c3ccccc23)C(=O)C1	-15	-0.1	4.7%	18	-1	-3.8
CCCCn1c(CCC(=O)O)nc2cc(S(=O)(=O)N(CC)CC)ccc21	-3	1.0	0.2%	19	2	-3.1
COc1ccc(N2CC(C(=O)N[C@@H](CC(C)C)C(=O)NC3CCCCC3)CC2=O)cc1 (stereo partly specified)	1	-0.2	0.4%	17	-1	0.8
CN(C)C(CNC(=O)c1sc2ccccc2c1Cl)c1ccco1 (stereo unspecified)	-47	-0.6	-0.2%	2	-11	-2.0
Cc1ccccc1Nc1sc(C(=O)c2ccc3c(c2)OCO3)c(N)c1S(=O)(=O)c1ccccc1	nt	0.5	3.2%	7	nt	nt
O=C(Cn1nnc(-c2ccc3c(c2)OCO3)n1)NCc1ccccc1	-1	-0.5	9.1%	-10	6	2.0
COc1ccc(-n2c(Cc3cccn3C)nnc2SCC(=O)Nc2ccc(C)cc2C)cc1	4	1.9	1.9%	26	-12	0.1
COc1ccc(Br)cc1/C=C1\Oc2ccccc2NC1=O	-5	-0.2	2.2%	27	1	-5.1
CC(C)S(=O)(=O)NC(=O)C1(C)CCN1C(=O)Cc1ccccc1Cl (stereo unspecified)	-7	-0.7	-0.3%	nt	2	-3.4
Cc1ccc(S(=O)(=O)CC(O)COc2ccc(F)cc2Cl)cc1 (stereo unspecified)	-3	-0.8	-0.6%	4	-13	-6.1
Cc1cccc(S(=O)(=O)Nc2nc3ccccc3nc2Nc2ccc3c(c2)OCO3)c1	1	-0.2	?	-18	0	-1.4
CCc1ccccc1Oc1nc(NCCOC)nc2cc(-c3ccccc3)sc12	-18	0.3	9.0%	-6	7	-1.4
COc1cc(C(=O)Nc2ccc3nn(-c4ccc(F)cc4)nc3c2)cc(OC)c1OC	nt	1.0	7.7%	2	nt	nt

Printed as active in Six1-Eya2 blk (from the list above):
SMILES | D2 PAM | PINK1 expr mod | TRPML1 blocker | Six1-Eya2 blk | D2 agonist
c1ccc(-c2nnc(-c3ccccn3)nn2)nc1 | -6 | -0.7% | nt | -79* | 4.8
